GLA inh pH 4.5: qHTS Assay for Inhibitors of Human alpha-Galactosidase at pH 4.5; purified enzyme, 4-MU-alpha-Gal fluorescence, pH 4.5; Alpha-galactosidase A (Homo sapiens), P06280; activity change, negative = inhibition, % at 105 µM; 230,000 tested, under 10 active; inconclusive = small, poorly fitted or top-dose-only inhibition, or a rising curve; inactive = flat fitted curve, though single readings scatter; no compound was filed as active;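 also: 0% = full activity with enzyme and -100% = basal without enzyme; dose as in the result columns while the protocol names 77 µM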
Rango complex inh: qHTS Assay for Inhibitors of Rango (Ran-regulated importin-beta cargo) - Importin beta complex formation | 340,000 tested, 0.031% active | AID 540263, 2011 | Potency, µM (doses to about 92.2 µM), for the others: at the top dose inhibition of complex formation | Rango CFP/YFP FRET sensor + importin beta, 45 min; active = rising FRET ratio curve, often small or poorly fitted; inconclusive = mostly compound fluorescence or quenching in the first reads; inactive = flat curves in all reads;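 also: potency is read from the fitted curve at half-maximal effect; 0% = DMSO wells and 100% = buffer wells lacking importin beta; nearly all actives have a fitted effect of over 15% in size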
Target sequence (Q14974 whole entry, looked up): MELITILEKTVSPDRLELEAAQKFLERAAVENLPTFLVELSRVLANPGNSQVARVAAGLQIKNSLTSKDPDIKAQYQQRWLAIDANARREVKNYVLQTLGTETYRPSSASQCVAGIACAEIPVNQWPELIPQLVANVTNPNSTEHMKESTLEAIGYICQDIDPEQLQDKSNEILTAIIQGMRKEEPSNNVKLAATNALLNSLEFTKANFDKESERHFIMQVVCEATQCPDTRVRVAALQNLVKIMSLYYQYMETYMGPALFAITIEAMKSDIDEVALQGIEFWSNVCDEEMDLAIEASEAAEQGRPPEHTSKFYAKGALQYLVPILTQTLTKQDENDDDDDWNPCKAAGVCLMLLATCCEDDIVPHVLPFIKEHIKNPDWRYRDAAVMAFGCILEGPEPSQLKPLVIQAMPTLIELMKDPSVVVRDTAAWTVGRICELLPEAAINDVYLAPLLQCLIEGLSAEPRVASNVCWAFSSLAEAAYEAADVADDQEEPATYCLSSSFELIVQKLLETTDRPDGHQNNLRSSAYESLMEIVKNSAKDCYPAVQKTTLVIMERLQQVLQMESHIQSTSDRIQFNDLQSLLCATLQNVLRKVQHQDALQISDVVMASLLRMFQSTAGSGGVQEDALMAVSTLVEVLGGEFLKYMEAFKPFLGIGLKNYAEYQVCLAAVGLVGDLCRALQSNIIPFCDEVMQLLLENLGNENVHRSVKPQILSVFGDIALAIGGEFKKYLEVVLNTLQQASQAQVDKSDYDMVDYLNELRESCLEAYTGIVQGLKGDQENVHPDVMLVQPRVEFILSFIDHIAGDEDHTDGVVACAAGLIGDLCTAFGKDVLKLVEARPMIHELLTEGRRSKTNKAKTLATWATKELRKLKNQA
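FRET biosensor (snurportin 1 IBB flanked by EYFP and cerulean), 50 nM, with compound 5 min, then 0.125 microM importin beta in PBS, 1 mM DTT, 0.02% Tween-20, 0.1% BSA. CFP/YFP ratio read after 45 min at room temperature; pre-read flags interference.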
Rango dissoc inh: qHTS Assay for Inhibitors of RanGTP induced Rango (Ran-regulated importin-beta cargo) - Importin beta complex dissociation | Biochemical FRET Rango-importin beta, RanGTP-induced dissociation | 340,000 tested, 0.071% active | Snurportin-1 (Homo sapiens) + GTP-binding nuclear protein Ran (Homo sapiens) + Importin … | Potency, µM (top dose mostly 46.1 µM), inactives show top-dose activity change, negative = inhibition; active means falling FRET ratio curve, often poorly fitted, with flat reads before Ran was added; inconclusive means other falling curves, or compound fluorescence or quenching; inactive means flat or rising ratio curve;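 also: potency is read from the fitted curve at half-maximal effect; % of control where 0% means no effect; nearly all actives have a fitted effect of over 45% in size; -100% = wells without RanGTP and RCC1; the record marks most hits as doubtful in a second field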
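Rango FRET biosensor (snurportin-1 IBB flanked by N-terminal EYFP and C-terminal CFP10) at 0.1 uM, with 0.25 uM importin beta in PBS, 1mM DTT, 0.02% Tween-20, 0.1% BSA. 0.6 uM Ran, 2mM GTP and 0.2 uM RCC1 were then added for 45 min at room temperature. Inhibition read as loss of FRET rise.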
miR-21 FLuc: qHTS Assay for Modulators of miRNAs and/orActivators of miR-21. HeLa miR-21 FLuc reporter, luciferase, 48 h. Potency, µM (titrated, usually from 38.3 µM), for the others: at the highest dose reporter change, positive = more light. 340,000 tested, under 10 active. AID 2288, 2010; active = well fitted rising curve with a large enough effect; inconclusive = small, poorly fitted or top-dose-only effect; inactive = no such curve, though single readings can be large or run the other way;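 also: % of control where 0% means no effect; miR-21 action dims this reporter so a rising signal means less miR-21 action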
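Compounds were titrated across several concentrations (up to approximately 40 uM) and incubated 48 hours with HeLa miR-21-FLuc reporter cells (miR-21 target sequence downstream of FLuc, endogenous miR-21). Readout was firefly luciferase luminescence after lytic detection reagent.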
An asterisk follows results filed as active; ? = inconclusive; · = not tested or not shown; & = joins results of further samples; [ ] = remark or other dose.

A first look (3 entries):
Second line of a record: GLA inh pH 4.5	Rango complex inh	Rango dissoc inh	miR-21 FLuc
Cc1cccn2c(=O)c3cc(C(=O)NC4CCS(=O)(=O)C4)sc3nc12 (stereo not given)
 : ?	?	-22%	-8%
CCOc1ccc(-c2noc(CCCC(=O)NCC3CCCO3)n2)cc1OC (stereo not given)
 : ·	-1.5%	-9%	-6%
CN(C)S(=O)(=O)c1ccc(Cl)c(NC(=O)CN2CCc3ccccc3C2)c1
 : -8	-2.5%	0%	-4%

Main list, from the first entry:
Second line of a record: GLA inh pH 4.5	Rango complex inh	Rango dissoc inh	miR-21 FLuc
Cc1cccn2c(=O)c3cc(C(=O)NC4CCS(=O)(=O)C4)sc3nc12 (stereo not given)
 : ?	?	-22%	-8%
CCOc1ccc(-c2noc(CCCC(=O)NCC3CCCO3)n2)cc1OC (stereo not given)
 : ·	-1.5%	-9%	-6%
CN(C)S(=O)(=O)c1ccc(Cl)c(NC(=O)CN2CCc3ccccc3C2)c1
 : -8	-2.5%	0%	-4%
Cc1ccc(S(=O)(=O)N2CCCC(C(=O)NCC(C)C)C2)cc1 (stereo not given)
 : -1	-3.7%	2%	2%
Cc1nnc(SCC2=C(C(=O)O)N3C(=O)C(NC(=O)Cc4ccccc4)C3SC2)s1 (stereo not given)
 : ·	1.5%	-2%	·
S=c1[nH]nc(C2CCCCC2)n1/N=C/c1cccc(Cl)c1Cl
 : ·	10%	-13%	-16%
Cc1cc(C(=O)OCC(=O)Nc2cc(C(F)(F)F)ccc2N2CCOCC2)c(C)o1
 : 2	4.1%	14%	-4%
Cc1ccc(C(=O)N/C(=C\c2ccc(-c3cccc([N+](=O)[O-])c3)o2)C(=O)NCCCN(C)C)cc1
 : ·	2.6%	6%	21%
CC(=O)c1ccc(NC(=O)CSc2nnc(NC(=O)C3CC3)s2)cc1
 : ·	0.2%	0%	-1%
Cc1cc(C)c(S(=O)(=O)N(C)CC(=O)N2CCCCC2)c(C)c1
 : 3	?	-5%	-10%
COc1cc(NS(=O)(=O)c2ccc(NC(=O)COc3ccccc3Cl)cc2)nc(OC)n1
 : -9	-3.6%	7%	-11%
COC(=O)c1ccc(N=NNc2ccc(C(=O)OC)cc2)cc1
 : 2	1.7%	-18%	-84%
CNCCCOc1ccc2c(c1)CCC2
 : -21	-0.4%	-12%	-19%
COc1ccccc1-c1oc2ccccc2c1-c1ccccc1OC
 : ·	7.2%	0%	·
C=CCn1c(CCc2cc(C(C)(C)C)c(O)c(C(C)(C)C)c2)n[nH]c1=S
 : 4	-0.8%	2%	3%

At a glance, some entries already given.
Second line of a record: GLA inh pH 4.5	Rango complex inh	Rango dissoc inh	miR-21 FLuc
S=c1[nH]nc(C2CCCCC2)n1/N=C/c1cccc(Cl)c1Cl
 : ·	10%	-13%	-16%
Cc1cc(C(=O)OCC(=O)Nc2cc(C(F)(F)F)ccc2N2CCOCC2)c(C)o1
 : 2	4.1%	14%	-4%
Cc1ccc(C(=O)N/C(=C\c2ccc(-c3cccc([N+](=O)[O-])c3)o2)C(=O)NCCCN(C)C)cc1
 : ·	2.6%	6%	21%

(more compounds)
Second line of a record: GLA inh pH 4.5	Rango complex inh	Rango dissoc inh	miR-21 FLuc
Cc1cc(NC(=O)c2cncc(Br)c2)n(-c2ccccn2)n1
 : 1	2.9%	8%	-2%
Nc1nnc(N2CCc3ccccc32)s1
 : 18	4.4%	2%	-24%
CC12COC3(C(N)=O)CC1CCC32C (stereo not given)
 : -1	4.2%	16%	-5%
Cc1cc(NC(=O)COc2c(C)cccc2C)no1
 : 9	1.1%	-8%	0%
O=c1c2ccccc2ncn1-c1ccc([N+](=O)[O-])cc1[N+](=O)[O-]
 : ·	0.7%	-1%	24%
Nc1cccnc1Oc1ccc(F)cc1
 : 1	2.9%	0%	-10%
COc1cc(/C=C2/SC(N)=NC2=O)ccc1Oc1ccc([N+](=O)[O-])cc1[N+](=O)[O-]
 : -7	4.3%	7%	2%
O=C(Nc1ccc(Cl)c(S(=O)(=O)N2CCCCC2)c1)c1cnccn1
 : ·	-0.9%	17%	·
O=C(c1cc(-c2ccco2)nc2ccccc12)N1CCN(c2ccc(F)cc2)CC1
 : -13	0.2%	-13%	-2%
Cn1c(=O)c2c(nc(NCCCN3CCOCC3)n2Cc2cccc(Cl)c2)n(C)c1=O
 : 11	-2.9%	21%	-19%
O=C(CC(=O)N/N=C/c1ccc(C(=O)O)cc1)NCCc1ccccc1
 : ·	-0.4%	-7%	2%
Cc1cc(=O)c2cc(Br)ccc2[nH]1
 : 2	0.0%	0%	16%
CC1CCN(S(=O)(=O)c2ccc(C(=O)Nc3nnc(-c4ccco4)o3)cc2)CC1
 : ·	0.0%	2%	24%
O=C(NN=Cc1ccccc1)C(Oc1ccccc1)c1ccccc1 (stereo not given)
 : ·	-1.3%	-11%	·
CCOC(=O)Cc1csc(NC(=O)CSc2nnc(-c3cccnc3)n2Cc2ccco2)n1
 : 0	0.1%	1%	2%
Cc1[nH]n(-c2c(Cl)cc(Cl)cc2Cl)c(=O)c1C=Nc1ccc(S(=O)(=O)N2CCOCC2)cc1
 : -15	3.6%	13%	-11%
CCC(C)C(NC(=O)C1CCC(C)CC1)C(=O)NC(C(=O)OC)C(C)C (stereo not given)
 : 7	0.6%	-4%	-3%
N=c1c(S(=O)(=O)c2ccc(Cl)cc2)cc2c(=O)n3ccccc3nc2n1C1CCCCC1
 : ·	?	?	-36%
COc1ccc(CCN=C(N)NS(=O)(=O)c2ccccc2)cc1OC
 : -4	3.2%	1%	-5%
CCCOc1ccc(C(=O)CCC(=O)NNC(=O)c2ccncc2)cc1
 : ·	-0.8%	-7%	-13%
CCc1c(C)c2c(C)nn(-c3ccccc3)c2oc1=O
 : 4	1.9%	7%	-33%
CCCCOC(=O)C1[C@H]2C(=O)N(Cc3cccs3)C[C@]23C=C[C@H]1O3 (stereo not given in full)
 : -1	-0.6%	12%	-7%
COCCn1c(N)c(N(Cc2ccccc2)C(=O)C2=COCCO2)c(=O)[nH]c1=O
 : ·	-1.3%	-11%	0%
O=C(N/C(=C/c1cccc([N+](=O)[O-])c1)C(=O)N1CCCCC1)c1cccs1
 : -4	-2.6%	20%	-19%
Cn1c(=O)cc(OCCCC(=O)NCc2ccco2)c2ccccc21
 : -7	0.6%	-1%	-10%
Nc1nc2c(s1)COc1ccccc1-2
 : 5	-0.4%	1%	-25%
COc1ccc(NC(=O)c2c(C(F)(F)F)nn(C)c2Cl)cc1
 : 3	-1.3%	4%	-12%
CC1Cc2nc(SCC(=O)N3CCc4ccccc43)n(C)c(=O)c2S1 (stereo not given)
 : 2	5.5%	1%	-2%
CC1=C(C#N)C(=O)N(C2CCS(=O)(=O)C2)C(=O)/C1=C\c1ccco1 (stereo not given)
 : -12	·	·	7%
CC(C)CN1CCN(Cc2cccc3cccnc23)CC1CCO (stereo not given)
 : 3	5.9%	5%	-1%
COc1cc(/C=C2\SC(=S)N(Nc3ncc(C(F)(F)F)cc3Cl)C2=O)cc(OC)c1OC
 : -17	3.4%	-11%	-6%
Cc1ccc(C(=O)c2cc3ccccc3o2)cc1C
 : -3	1.6%	-14%	-51%
COc1ccc(/C=C/C(=O)Nc2nc(C)c(C(=O)N(C)C)s2)cc1OC
 : -9	0.3%	7%	-11%
Cc1nc2c(-c3ccc(F)cc3)c(C)[nH]n2c(=O)c1Cl
 : ·	1.4%	11%	7%
COc1ccccc1C(=O)NC(=O)COC(=O)CCNS(=O)(=O)c1ccccc1
 : ·	-0.2%	23%	·
FC(F)(F)c1ccc(-n2ccnc2)nc1
 : -3	-3.9%	-10%	0%
COc1ccccc1N(C)C(=O)c1cc(S(=O)(=O)N2CCc3ccccc32)cn1C
 : ·	0.0%	13%	2%
Cc1cc(C)cc(NC(=O)CSc2nc(=O)n(CCN3CCOCC3)c3c2CCCC3)c1
 : ·	-1.1%	0%	·
O=C(O)CC1S/C(=N/N=C/c2ccc(-c3ccc(Cl)c([N+](=O)[O-])c3)o2)NC1=O (stereo not given)
 : -7	-0.6%	3%	0%
CC(C)N(C(=S)NCc1ccccc1)c1ccccc1
 : -6	-2.1%	-4%	-2%
COC(=O)Cc1ccc(NC(=S)NCc2ccco2)cc1
 : 3	2.3%	-3%	-11%
O=C(COc1ccc(Cl)cc1Cl)NCC1(N2CCOCC2)CCCCC1
 : ·	0.1%	-7%	·
CC(=O)c1ccc(S(=O)(=O)NCCC(=O)N2CCN(c3ccccn3)CC2)cc1
 : ·	2.9%	3%	·
COC1c2ccccc2C(=O)N1CCc1ccc(Cl)cc1 (stereo not given)
 : ·	-0.4%	-1%	-23%
COc1cccc(C(=O)C2CCCN(C(=O)c3ccc(C#CC(C)(C)O)cc3)C2)c1 (stereo not given)
 : 3	7.3%	6%	10%
N#CC1=C(SCC(=O)NC2CCCCC2)NC(=O)CC1c1ccco1 (stereo not given)
 : 4	-0.2%	-7%	11%
O=C(Cn1cnc2c(nnn2Cc2ccc(F)cc2)c1=O)NCc1ccco1
 : 2	1.7%	5%	-5%
Cc1ccc(-n2ncc3c(N4CCN(c5ccc(F)cc5)CC4)ncnc32)c(C)c1
 : 4	-0.1%	-12%	-3%
COc1ccc(N(C(=O)c2cccnc2)S(=O)(=O)c2ccccc2)cc1
 : 2	5.6%	-3%	-2%
CC(=O)c1cc(C(C)=O)c(C)nc1C
 : -2[21.1 µM]	0.5%	-17%	3%
CCN(CC)C(=O)Oc1ccc(NC(C)=O)cc1
 : 1	-2.1%	-11%	-3%
CC1(CCc2ccccc2)NC(=O)N(CC(=O)O)C1=O (stereo not given)
 : -3	13%	-1%	-3%
Cc1c(NC(=O)c2cccs2)cccc1C(=O)O
 : 6	-2.7%	-3%	-29%
CC(=O)c1ccc(NC(=S)Nc2cccc3cnccc23)cc1
 : 2	4.3%	2%	?
COc1ccc(Br)cc1-c1nc(CCl)cs1
 : 1	1.8%	-6%	-5%
O=C(O)CCCN1C(=O)/C(=C\c2ccco2)SC1=S
 : 4	?	-8%	?
COc1cccc2c(=O)c(C(=O)O)c[nH]c12
 : 9	-1.5%	7%	8%
Cc1ccc(C(=O)c2ccc(CC(=O)O)n2C)cc1
 : -1&2	-2.4%	11%	·
Cc1ccc(/C=N/Nc2ccc(Cl)nn2)cc1
 : 6	0.0%	0%	-41%
O=C(Cn1c2ccccc2c(=O)c2ccccc21)N/N=C/c1ccc(N2CCCC2)c([N+](=O)[O-])c1
 : 1	-3.0%	-3%	-5%

Next part:
Second line of a record: GLA inh pH 4.5	Rango complex inh	Rango dissoc inh	miR-21 FLuc
Cc1ccc(C)c(NC(=O)CN(C)C(=O)c2sccc2C)c1
 : ·	1.0%	3%	·
CC1(C)CC2(CC(c3ccccc3)c3ccc(O)cc3O2)NC(=S)N1 (stereo not given)
 : 5	0.8%	5%	10%
Cc1cc(C)cc(NC(=O)C(=O)NCCc2c[nH]c3ccccc23)c1
 : 5	0.4%	-8%	3%
CCOc1ccc(C(=O)Nc2nnc(S(=O)(=O)Nc3ccccc3C)s2)cc1
 : ·	-1.8%	15%	-16%
CC(C)(C)OC(=O)N1CCC(c2cc(=O)n3[nH]c(-c4ccc(Cl)cc4)cc3n2)CC1
 : 0	-0.2%	0%	-2%
COCCn1c(SCC(=O)N2CCc3ccccc3C2)nc2cc(Cl)ccc2c1=O
 : -4	-4.5%	16%	-1%

Only part of the results is shown. The share of hits here may be higher or lower than overall.
